# Compound activity deposited in PubChem by ICCB-Longwood Screening Facility, Harvard Medical School.
# MgrA DNA FP: S. aureus MgrA activity modulators, primary screen, biochemical, S. aureus Newman, fluorescence polarization; MgrA-DNA binding; inhibition, %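 (about 10 µg/mL by stock and volumes)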; hit rate 0.13% among 84,000; AID 602314, 2012;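 active = above 50% in either of two replicates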;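 also: 0% = protein plus DNA without compound and 100% = DNA alone without protein; higher means less MgrA bound to DNA so lower polarization; one replicate is shown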
# Sa helicase inh: inhibitors of S. aureus replicative helicase, primary screen, biochemical, fluorescence unwinding readout; hit rate 0.05% among 120,000; AID 485395, 2010; purified S. aureus helicase, fluorescence unwinding assay; about half of the hits fall short of the stated cut; inhibition, %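 (tested at about 80 µM)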;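 active = both duplicates at 50% or more, or one of them with a favoured structure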;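 also: 0% = mean of negative control wells and 100% = mean of positive control wells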
# Active calls of the source: *; . = no result given. These rows are one share of the data; the hit share may differ from the screen's.
# Value order – MgrA DNA FP	Sa helicase inh
O=C(CN1CCc2ccccc21)N1CCN(S(=O)(=O)c2ccccc2)CC1
 : .	16
CCOC(=O)c1cc(C#N)c(Sc2n[nH]c(C(F)(F)F)n2)nc1C(F)(F)F
 : .	-11
CC1=C(C)NC(=S)SC1
 : 4.5	-2
c1cc2c(cc1COCc1ccc3c(c1)CCO3)CCO2
 : 1.3	.
Nc1c(NCCO)c2ccccc2oc1=O
 : .	-42
COC(=O)c1sc(NC(=O)C(F)(F)F)c(C(=O)OC)c1C
 : .	23
O=C(COc1ccc(Cl)cc1)OCC(=O)N1CCCCCC1
 : -0.2	11
N#CC(=C1SC2CS(=O)(=O)CC2S1)c1nc2ccccc2s1 (stereo not drawn)
 : .	0
CCCN(C(=O)Cc1noc2ccc(C)cc12)c1ccc(F)cc1
 : -0.8	-4
Cc1ccc(N=Cc2cc3ccccc3nc2Cl)c(C)c1
 : 1.4	-12
COC(=O)c1ccsc1N
 : 71*	.
COc1cccc(N2CC(C(=O)Nc3c(C(N)=O)oc4ccccc34)CC2=O)c1 (stereo not drawn)
 : .	5
O=C1c2cccc3cccc(c23)N1CNc1ncccn1
 : .	5
O=C(CN(c1cccc(Br)c1)S(=O)(=O)c1ccccc1)N1CCOCC1
 : 0.3	2
Cc1ccc(-c2c(C(=O)NC(C)C)oc(=O)c3ccccc23)cc1
 : -2.2	2
O=C1CC(N2CCCCC2)C=C1Nc1ccccc1 (stereo not drawn)
 : .	4
CSc1oc(-c2ccco2)nc1S(=O)(=O)c1ccccc1
 : 7.6	18
Cc1cccc2cc(C#N)c(N3CCC(C)CC3)nc12
 : 0.6	12
C=CCN1C(=O)/C(=C2\SC(=Nc3ccccc3)N(c3ccccc3)C2=O)c2ccccc21
 : 0.5	4
COc1ccc(N/C=C\C(=O)c2ccc3c(c2)OCO3)cc1
 : -1.1	5
OC1CC(c2ccccc2)Oc2ccccc21 (stereo not drawn)
 : -2.0	.
O=C(O)CC(C(=O)O)N1C(=O)CSC1=S (stereo not drawn)
 : .	10
Fc1cccc(Cl)c1/C=C/c1cnc2ccccc2n1
 : 5.4	.
O=C(CNC(=S)N(Cc1ccccc1)Cc1cccnc1)NC1CC1
 : 0.1	7
O=C(Nc1ccccc1C(=O)NC1CCCC1)NC1CCCC1
 : -0.2	4
CCC(=O)N(c1ccc(OC)cc1OC)C1C=CS(=O)(=O)C1 (stereo not drawn)
 : 3.8	8
CNC(=O)C1CCCN(c2nn3cc(-c4ccc(OC)cc4)nc3s2)C1 (stereo not drawn)
 : 5.5	4
COc1cc(NC(=O)c2nn3c(c2Cl)NC(c2ccc(OC)c(OC)c2)CC3C(F)(F)F)cc([N+](=O)[O-])c1 (stereo not drawn)
 : 0.1	.
O=C1CC(C(=O)N(C/C=C/c2ccccc2)c2ccc3c(c2)OCCO3)CN1Cc1ccco1 (stereo not drawn)
 : .	0
COC(=O)Nc1nn(Cc2ccccc2F)cc1Br
 : -0.2	17
COC(=O)c1ccc2c(=O)[nH]c(COC(=O)c3ccccc3NCCO)nc2c1
 : .	0
Cc1ccc(C)c(NCc2ccc3c(c2)OCO3)c1
 : 2.8	17
COC(=O)C(N)C(C)C (stereo not drawn)
 : .	-8
O=C(OCN1C(=O)c2ccccc2C1=O)c1ccco1
 : -1.7	3
CS(=O)(=O)Nc1ccc2c(c1)OCC(=O)N2Cc1ccccc1
 : 3.7	-8
Cc1ccc(Cl)cc1NC(=O)Cn1c(=O)n(CCc2c[nH]c3ccccc23)c(=O)c2cccnc21
 : 1.5	-2
CN1CCC(N(C)C(=O)/C(C#N)=C/c2ccc(OC(F)F)cc2)CC1
 : .	-20
CCCN1Cc2cccc(C(=O)Nc3ccc(CC)cc3)c2C1=O
 : .	28
O=S(=O)(Cc1noc(-c2ccsc2)n1)c1ccccn1
 : 0.1	.
Cc1ccc2c(c1)-c1onc(C(=O)N3CCC(C)CC3)c1CO2
 : -1.1	13
CC1=C(c2ccccc2)S(=O)(=O)N(CC(=O)O)C1=O
 : .	-9
COc1ccc(N2CCN(C(=O)CC(c3cccc(C)c3)n3cccc3)CC2)cc1 (stereo not drawn)
 : .	5
COc1cccc(-n2cc(C(=O)NCc3ccccc3Cl)c3ccccc3c2=O)c1
 : 0.8	7
CC1(C)CC(=O)c2c(SCCO)sc(C#N)c2C1
 : -3.4	.
O=C(CSc1ccccc1)N1CCN(C(=O)C2CCCO2)CC1 (stereo not drawn)
 : -0.5	9
N#CCn1c(CSc2n[nH]c(N)n2)nc2ccccc2c1=O
 : .	-22
Nn1c(=O)c2ccccc2n2c(SCC(=O)c3ccccc3)nnc12
 : 0.6	14
CC(OC(=O)c1oc2ccccc2c1CSc1ncn[nH]1)C(=O)Nc1ccc(S(=O)(=O)Nc2ncccn2)cc1 (stereo not drawn)
 : .	-1
Cn1nccc1NC(=O)CC#N
 : -1.0	.
CCNc1nc(CN2CCOCC2)nc2sc3c(c12)CCCC3
 : .	-8
COc1ccc(CNC(=O)c2cnc3scc(C)n3c2=O)cc1
 : 0.8	17
CCCC(=O)NC(=S)c1sc(N2CCCC2)nc1-c1cccs1
 : .	3
Cc1cc(C)n(C(=O)N2c3ccccc3Sc3ccccc32)n1
 : -0.8	6
COc1ccc(CN(Cc2ccc(OC)cc2)C(=O)c2cccs2)cc1
 : -0.2	.
COc1cc(Cl)cc(CNC(C)C(=O)O)c1O (stereo not drawn)
 : 1.8	.
CC1(C)CCc2cc(-c3ccn(S(=O)(=O)c4cccc(C(F)(F)F)c4)n3)ccc2O1
 : -1.1	.
COCN1C(=O)c2cc(Cl)c(Cl)cc2C1=O
 : .	11
CC(=O)Oc1ccc(-c2ccc(C(=O)O)cc2)cc1C
 : -2.0	5
CCN1CCn2c3c(c4cc(Cl)ccc42)CCCC31 (stereo not drawn)
 : -1.8	0
COc1ccc(S(=O)(=O)Nc2ccc3oc(=O)c(NC(C)=O)cc3c2)cc1OC
 : 2.5	.

# (continued)
# Value order – MgrA DNA FP	Sa helicase inh
Cc1cccc2c(=O)c(NC(=O)N3CCC(C(N)=O)CC3)c[nH]c12
 : .	-8
COc1ccc(CC2CCC3(CC2)NC(=O)c2ccccc2O3)cc1 (stereo not drawn)
 : 1.0	.
CC(C(=O)Nc1ncccn1)(c1ccccc1)c1ccccc1
 : -0.9	4
O=C(OCCN1CCCC1=O)c1sc2cc(Cl)ccc2c1Cl
 : -0.6	-11
COc1cc(-c2nnc(SCc3cn4cc(Cl)ccc4n3)o2)cc(OC)c1OC
 : .	-8
Cc1c(Cl)cccc1N=C1NC(=O)CS1
 : 0.4	3
O=C(CCC(=O)c1cccs1)Nc1cc(Cl)cc(Cl)c1
 : -0.6	9
Cc1noc(C)c1COc1cccc(C(=O)OCN2C(=O)c3ccccc3C2=O)c1
 : .	-4
CCCc1c(C)nc2scc(-c3ccccc3)n2c1=O
 : -2.9	.
CC1(C)CC(=O)C(C(c2ccc(F)cc2O)C2C(=O)CC(C)(C)CC2=O)C(=O)C1
 : 11	17
CCOC(=O)c1ccc(N/C=C/C(=O)C(C)(C)C)cc1
 : -0.2	8
CC(C)(C)NC(=O)CSc1nncn1NCc1ccccc1
 : -2.8	-1
CC(=O)Oc1ccccc1C(=O)NCc1ccc(C)cc1
 : -2.5	6
CCOC(=O)N1CCC(NC(=O)c2ccc3c(c2)N(Cc2cccc(Cl)c2)C(=O)c2ccccc2S3=O)CC1 (stereo not drawn)
 : .	-9
CCCCCc1c(C)nc(-c2ccccn2)[nH]c1=O
 : .	25
COc1ccc(S(=O)(=O)N2CCC(C(=O)O)CC2)cc1
 : .	-32
COc1cc(OC)c(OC)cc1/C=N/n1c(C)nnc1-n1nc(C)cc1C
 : .	29
CN1CCN(c2ccc(CNS(=O)(=O)c3ccc(-c4ccno4)s3)cc2)CC1
 : .	0
COc1ccccc1C(=O)Nc1ccc2oc(-c3ccccc3Br)nc2c1
 : -0.1	.
N#Cc1ccccc1NS(=O)(=O)c1ccccc1
 : -2.2	.

# Part of the list above in order of formula weight, falling:
# Value order – MgrA DNA FP	Sa helicase inh
Cc1noc(C)c1COc1cccc(C(=O)OCN2C(=O)c3ccccc3C2=O)c1
 : .	-4
N#Cc1ccccc1NS(=O)(=O)c1ccccc1
 : -2.2	.
Cc1c(Cl)cccc1N=C1NC(=O)CS1
 : 0.4	3

# (listing goes on)
# Value order – MgrA DNA FP	Sa helicase inh
CC(C)N(C(=O)Nc1ccccc1)C(C)C
 : 3.7	.
CCOc1ccc(C2c3cc(OC)c(OC)cc3CC(=O)N2c2ccccc2)cc1 (stereo not drawn)
 : 4.2	8
Brc1ccc(C2Nc3ccc4ccccc4c3C3C=CCC32)cc1 (stereo not drawn)
 : -2.0	.
Cc1c2cnn(CC(=O)N3CCc4ccccc43)c(=O)c2c(C)n1Cc1ccc(F)cc1
 : .	-4
NC(=O)c1ccc(NC(=O)COC(=O)Cc2cccc3ccccc23)cc1
 : -1.3	14
CC(O)CON1C(=O)c2ccccc2C1=O (stereo not drawn)
 : .	-11
Cc1cccc(OCCCC(=O)Nc2ccccc2N2CCOCC2)c1
 : .	-6
NCc1ccccc1OC(F)(F)F
 : .	4
COc1ccc(OCC(=O)N(C)CC2COc3ccccc3O2)cc1 (stereo not drawn)
 : .	7
O=C(OCCN1C(=O)c2ccccc2C1=O)c1cccc(C(F)(F)F)c1
 : .	-5
CCOC(=O)C1C(=O)Oc2ccc(Br)cc2C1C1(C(=O)OC)CCCCC1 (stereo not drawn)
 : 0.6	2
CCCCS(=O)(=O)Nc1ccc2cn[nH]c2c1
 : .	-9
NNC(=O)C1CCC(c2ccc(Cl)cc2)CC1 (stereo not drawn)
 : -1.6	.
CC(C)NC(=O)CCCc1nc(-c2ccc(Cl)cc2)no1
 : .	-37
CC(=O)c1sc2nsc(SCCN3CCCCC3)c2c1N
 : 1.7	.
Cc1ccc(-c2nn(-c3ccccc3)c(=O)c3ccccc23)cc1C
 : 0.1	.
CCCCN1C(=O)c2ccc(C(=O)Oc3ccc(-c4nnco4)cc3)cc2C1=O
 : .	-10
CCc1nn(-c2ccccc2)c(=O)c2ccccc12
 : 1.6	7
O=C1CC2(CCCC2)C(=O)N1c1ccc(S(=O)(=O)NCc2ccco2)cc1Cl
 : .	-19
Cc1nnsc1C(=O)NCc1ccc(N2CCN(C)CC2)cc1
 : -2.5	.
O=C(Nc1ccc(F)cc1)N1CCC(Nc2nc3ccccc3o2)CC1
 : .	-16
COC(=O)c1cc2c(C)nn(-c3ccccc3)c2s1
 : -2.6	8
COc1ccc(S(=O)(=O)Nc2ccc(O)c(Sc3ncn[nH]3)c2)cc1
 : .	-15
COC(=O)c1sc(-c2cccs2)cc1NC(=O)c1ccco1
 : 12	.
NC(=O)C1CCCN1c1ncnc2sc(-c3ccccc3)cc12 (stereo not drawn)
 : .	6
COc1ccc2cc(C#N)c(Cl)nc2c1
 : 0.0	9
O=C(O)COc1ccc(-n2cccc2)cc1
 : 15	9
N#Cc1c(F)cccc1Oc1ccccc1
 : 0.9	.
COc1cccc(-c2cc(C(=O)N(C)C3CCCCC3)[nH]n2)c1
 : .	-19
N#Cc1cc(C(=O)c2cc(F)ccc2O)cn(C2CC2)c1=O
 : .	-4
Cc1nc2ccccc2c2oc(C(=O)NC3CCC(C)CC3)cc12 (stereo not drawn)
 : .	13
O=C(NCc1cccs1)c1cccnc1SCCS(=O)(=O)c1ccc(C(F)(F)F)cn1
 : 2.4	.
COc1ccc(N2C(=O)c3ccccc3NC23CC2CC=CC23)cc1 (stereo not drawn)
 : .	14
CCOC(=O)C1CCCN(C(=O)C23CC4CC(CC(C4)C2)C3)C1 (stereo not drawn)
 : -0.1	16
O=C(c1ccc(F)c(F)c1)N1CCc2ccccc2C1
 : -1.5	6
Cc1ccc(/C=C2\SC(=S)N(C3CCS(=O)(=O)C3)C2=O)cc1 (stereo not drawn)
 : .	-21
Cc1csc(SC(C)C(=O)Nc2ccc(S(=O)(=O)N3CCCC3)cc2)n1 (stereo not drawn)
 : .	-3
COC(=O)c1ccc(/C=[N+](\[O-])c2ccccc2)cc1
 : .	23
CCn1c2c(c3ccc(OC)cc31)CCCC2=O
 : -0.2	2
O=C(Cc1nc2ccccc2n1C(F)F)c1ccccc1
 : .	2

# Full records, quoted from the list. Values in the order: MgrA DNA FP, Sa helicase inh
# `CCn1c2c(c3ccc(OC)cc31)CCCC2=O` is listed with -0.2, 2
# `O=C(NCc1cccs1)c1cccnc1SCCS(=O)(=O)c1ccc(C(F)(F)F)cn1` is listed with 2.4, .

# (next part)
# Value order – MgrA DNA FP	Sa helicase inh
COc1ccc2c(c1)C(C)(CC#N)C(=O)N2C (stereo not drawn)
 : 1.2	10
Cc1sc2ncnc(Nc3ccccc3)c2c1C
 : -2.2	9
CCOC(=O)COc1ccc2c(c1)C(=O)CC(C)(C)O2
 : -0.8	7
CNCc1nc2ccc(Cl)cc2[nH]1
 : -8.6	-9
CCOC(=O)Nc1ccc2c(c1)N(CCCN(C)C)c1ccccc1CC2
 : -0.5	-1
NCCNCC1COC2(CCCCCCCCCCC2)O1 (stereo not drawn)
 : .	-29
CCOc1ccc2[nH]c(=O)c(CNCCCO)cc2c1
 : 0.2	-5
COc1ccc(CN(CCN)C2CC(C)N(C)CC2C)cc1 (stereo not drawn)
 : 0.3	7
c1ccc(-c2cc3ccccn3c2)cc1
 : -2.3	.
O=C(O)CCC(=O)N(Cc1ccccc1)Cc1cn(-c2ccccc2)nc1-c1cccnc1
 : 0.7	0
N#Cc1cc2c(N)c(C(=O)Nc3ccccc3)sc2nc1N
 : 1.2	-10
COC(=O)C1=C(Nc2ccccc2NS(=O)(=O)c2ccccc2Cl)CSC1
 : 0.0	.
CC1CCN(Cc2c(C(=O)N/N=C/C=C/c3ccccc3)nnn2-c2nonc2N)CC1
 : .	31
Cc1ccc(S(=O)(=O)Cc2nc(-c3ccc(C(=O)NC(C)C)cc3)oc2C)cc1
 : .	22
